PINK1 modulator = PINK1 expression modulation; PINK1 immunofluorescence, high-content cytometry, 24 h; Potency, µM (doses to about 76.6 µM), inactives show top-dose activation (PINK1 increase), usual class: activators; 410,000 compounds, 0.2% hits; AID 624263; active = well fitted activation curve with a large enough effect; inconclusive = small, poorly fitted or top-dose-only effect; inactive = flat fitted curve, though single readings scatter; cell line not stated here;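 note: potency is the fitted concentration of half-maximal effect; % of control where 0% means no effect; nearly all actives have a fitted effect of over 65% in size; a mitochondrial uncoupler was the plate control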
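Stable cell line, 250 cells/well, 12 h attachment; compounds pinned at 5 concentrations, 24 h; CCCP control. Fixed with nuclear dye, primary antibodies 12 h at 10 degrees C, secondary plus cell stain; laser-scanning cytometer read.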
CtBP-E1A blk = blocks the CtBP interaction with E1A; AlphaScreen GST-E1A/His-CtBP binding, 1536-well; stronger effect = lower value; control for the full effect not named in the record; 340,000 compounds, 0.49% hits; activity change, % (test concentration not listed); in the data active means activity change below about -65%; inconclusive means about -30% to -65%; inactive means above about -30%; note: % is set by controls: 0 for no effect and ±100 for the full control effect
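GST-E1A and His-tagged CtBP (125 nM each as 5X stock) were preincubated with pin-transferred compound for 2 h at 37 °C in the dark, then glutathione donor and nickel acceptor beads were added for 1 h before AlphaScreen reading.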
Sfp PPTase inh = blocks B. subtilis Sfp PPTase activity; Q9F4F7; Biochemical Sfp PPTase activity, qHTS; Potency, µM, for the others: max response, negative = inhibition, usual class: inhibitors; 310,000 compounds, 3.5% hits; AID 1490; active = well fitted inhibition curve with a large enough effect; inconclusive = small, poorly fitted or top-dose-only effect, or another doubt; inactive = no such curve, though single readings can be large or run the other way;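 note: the enzyme is Sfp with the accession as filed and its product quenches rhodamine fluorescence; potency is the fitted concentration of half-maximal effect; 0% = enzyme reaction without inhibitor and -100% = no enzyme wells; top concentration of the series not given in the record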
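After 15 min at room temperature with compound, 15 nM Sfp received 5 uM rhodamine-CoA plus 12.5 uM BHQ-2-ybbR (50 mM Hepes pH 7.6, 10 mM MgCl2). Rate came from the fluorescence difference over 30 min, ex 525/em 598 nm.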
D2 PAM = human D2 receptor positive allosteric modulation; potentiation, % (test concentration not listed); 360,000 compounds, 0.23% hits; DiscoveRx D2 beta-arrestin cells, luminescence, 90 min; 100% = 57 uM dopamine signal; P14416; active = potentiation of 50% or more; inconclusive = 30% to 50%; inactive = 30% or less;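 note: compound concentration not given in the record; tested on top of an EC20 dose of dopamine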
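PathHunter D2 cells, attached overnight at 37 deg C, received compound in DMSO plus dopamine at EC20 (50 nM final) for 90 min at 37 deg C. Beta-arrestin recruitment was read as luminescence after 1 h with detection reagent at ambient temperature.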
D2 agonist = activates the human D2 dopamine receptor; P14416; DiscoveRx PathHunter D2 beta-arrestin, luminescence, 90 min; 100% = 57 uM dopamine signal; activation, % (no concentration beside the values); 360,000 compounds, 0.084% hits; AID 624465; in the data active = activation above about 40%; inconclusive = about 15% to 40%; inactive = below about 15%; note: compound concentration not given in the record; the text of the record calls up to 30% inactive
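Agonist mode: compounds alone added to overnight-plated D2 PathHunter cells for 90 min at 37 C, with 57 uM final dopamine (EC100) defining full response. Beta-arrestin recruitment detected by chemiluminescent reagent, read after 1 h at ambient temperature.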
Six1-Eya2 inh = blocks human Six1 binding to Eya2. Q15475+O00167. AlphaScreen GST-Six1/His-Eya2 binding, biochemical; stronger effect = lower value; control for the full effect not named in the record. activity change, % (no concentration beside the values). 360,000 compounds, 0.56% hits. AID 651725; in the data active = activity change below about -65%; inconclusive = about -30% to -65%; inactive = above about -30%; note: % is set by controls: 0 for no effect and ±100 for the full control effect
Target sequence (O00167 whole entry, looked up): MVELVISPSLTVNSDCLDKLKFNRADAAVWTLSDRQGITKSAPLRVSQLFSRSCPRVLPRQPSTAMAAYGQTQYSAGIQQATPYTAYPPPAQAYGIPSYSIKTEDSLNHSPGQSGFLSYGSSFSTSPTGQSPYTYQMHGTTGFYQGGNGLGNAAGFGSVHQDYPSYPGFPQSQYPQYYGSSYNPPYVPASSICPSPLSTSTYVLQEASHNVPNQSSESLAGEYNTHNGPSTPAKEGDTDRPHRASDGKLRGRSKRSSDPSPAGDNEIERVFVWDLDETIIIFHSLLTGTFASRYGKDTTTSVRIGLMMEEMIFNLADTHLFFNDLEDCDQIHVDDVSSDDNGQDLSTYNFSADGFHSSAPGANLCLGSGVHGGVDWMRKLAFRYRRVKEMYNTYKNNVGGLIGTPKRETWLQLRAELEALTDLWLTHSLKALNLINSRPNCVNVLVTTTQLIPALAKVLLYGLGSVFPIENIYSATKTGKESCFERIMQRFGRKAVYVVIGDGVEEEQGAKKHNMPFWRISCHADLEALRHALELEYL
Target sequence (Q15475 whole entry, looked up): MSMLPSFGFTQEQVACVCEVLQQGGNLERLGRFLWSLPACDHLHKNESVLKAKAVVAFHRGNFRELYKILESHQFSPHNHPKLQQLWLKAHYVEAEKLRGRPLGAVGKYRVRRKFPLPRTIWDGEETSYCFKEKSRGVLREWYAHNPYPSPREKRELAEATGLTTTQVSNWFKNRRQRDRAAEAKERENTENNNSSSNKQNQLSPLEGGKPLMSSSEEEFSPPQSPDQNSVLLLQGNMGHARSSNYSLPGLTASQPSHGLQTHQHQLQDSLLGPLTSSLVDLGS
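Compounds are tested against tagged Six1 and Eya2 proteins bridged by glutathione donor and nickel acceptor beads; after a one-hour incubation at 37 °C without light, AlphaScreen emission is recorded.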
TRPV1 PAM = enhances activation of the human vanilloid receptor TRPV1; TRPV1-expressing cells, Fluo-8 calcium influx, capsaicin EC20 potentiation; host cell line not named in the record; control for the full effect not named in the record; Q8NER1; AID 540277; 320,000 compounds, 0.02% hits; potentiation, % at 8.33 µM; active means potentiation above 80%; inconclusive means 30% to 80%; inactive means below 30%; note: 0% is about no effect
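Cells expressing TRPV1 were dye-loaded with Fluo-8 and read kinetically: 10 s baseline, 3 min after compound (agonist portion), then 2 min after EC20 capsaicin (allosteric enhancer portion). Calcium-bound dye fluorescence at 480/520 nm.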
Starred values were filed as active, the others as inactive; ? = inconclusive; . = no result given; & = joins results of further samples; [ ] = remark or other dose. Rows are unselected; any-hit rate near 3.7%.

SMILES | PINK1 modulator | CtBP-E1A blk | Sfp PPTase inh | D2 PAM | D2 agonist | Six1-Eya2 inh | TRPV1 PAM
COc1cc(C2/C(=C(\O)c3ccc4c(c3)CC(C)O4)C(=O)C(=O)N2CCN2CCOCC2)cc(OC)c1OC (stereo unspecified) | 0.1% | -14 | 4% | -19 | -0.2 | 17 | 5
COc1ccc(C(=O)Nc2ccc(N3CCN(C(=O)C(C)C)CC3)cc2)cc1[N+](=O)[O-] | -1.4% | -11 | 15% | -4 | -0.6 | 3 | 1
Cc1ccc(Cn2ccc(NC(=O)c3noc4c3CCCCC4)n2)cc1 | 7.1% | -20 | 5% | 9 | 1.7 | -3 | -9
CCOC(=O)c1sc(NC(=O)c2cc(-c3ccccc3)nc3ccccc23)c(C#N)c1C | ? | 14 | 40µM* | 7 | -1.0 | -4 | .
COC(=O)c1c(C)oc2ccc(N(C(=O)c3ccncc3)S(=O)(=O)c3ccc(C)cc3)cc12 | 0.9% | -4 | 4% | 13 | -2.2 | -8 | -7
COC(=O)C1=C(C)N(Cc2ccco2)C(=O)N[C@@H]1c1ccco1 | 1.5% | -1 | -15% | -6 | 0.3 | -3 | .
CCOc1ncccc1C(=O)OCC(=O)Nc1ccc(C)c(S(=O)(=O)N(C)C)c1 | 1.4% | -23 | 0% | -3 | -2.0 | 2 | 6
FC(F)(F)c1cnc(Oc2cccc3ccccc23)c(Cl)c1 | ? | 4 | -17% | 4 | -0.2 | 51 | 15
CCN(C(=O)COC(=O)c1cccnc1Nc1cccc(C(F)(F)F)c1)C1CCS(=O)(=O)C1 (stereo unspecified) | 6.7% | 24 | -5% | -18 | -0.9 | 35 | -2
O=C(NC(=S)N1CCCCC1)C12CC3CC(CC(C3)C1)C2 | -1.8% | 1 | 13% | -17 | -2.2 | -1 | -11
Fc1cccc(Nc2c3c(nc4ccccc24)CCC3)c1 | ? | -4 | 1% | -13 | 4.2 | -2 | -3
O=C(CN1CCCC1)Nc1ccc([N+](=O)[O-])cc1 | 0.9% | -1 | 22% | -8 | -1.5 | 4 | -11
CC(C)Oc1ccc(C(=O)NCc2cccnc2)cc1 | -1.4% | -7 | -26% | -7 | -3.2 | 6 | -3
Cc1ccccc1C(=O)N1CCC[C@H]1C(=O)N1CCC[C@H]1C(=O)NCc1ccccn1 | -0.3% | -9 | . | . | . | 8 | .
CCOC(=O)CC(=O)CSC1=C(C#N)C(c2ccccc2OC)CC(=O)N1 (stereo unspecified) | 4.9% | 0 | ? | -3 | -0.1 | -6 | 1
CCn1c(C)nc2cc(C(=O)N3N=C(CCOC)CC3(O)C(F)(F)F)ccc21 (stereo unspecified) | -2.1% | 2 | 6% | -7 | -3.2 | -1 | -18
COc1cc(OC)cc(C(=O)Nc2nc(CC(=O)NC(C)c3ccccc3)cs2)c1 (stereo unspecified) | 6.6% | 1 | . | 1 | 7.0 | -8 | -3
O=C(COc1ccc2ccccc2c1)N1CCN(c2ccccc2)CC1 | 4.8% | -2 | . | -4 | -3.3 | -6 | 4
O=c1[nH][nH]c2c1[C@H](c1ccc(Cl)cc1)O[C@H](CCc1ccccc1)C2 | 14% | 2 | . | . | . | -2 | .
COc1ccc(OCCSc2n[nH]c(N)n2)cc1 | -0.9% | -6 | 23% | 3 | -1.4 | -3 | -3
NS(=O)(=O)c1cccnc1Nc1cccc(C(F)(F)F)c1 | 7.2% | 0 | 21% | -12 | -1.2 | -4 | 5
NC(=O)c1cccc(-c2ccnc3c2CC(C(=O)NCC2CC2)O3)c1 (stereo unspecified) | 2.6% | 3 | . | 3 | 2.6 | -3 | .
Cc1ccc(NC(=O)CN2CCN(Cc3ccccc3)CC2)cc1 | 0.9% | . | 11% | -13 | -2.4 | 3 | -9
NC(=O)[C@H]1CC2(CC(c3cccc(NC(=O)COc4ccc(Cl)cc4)c3)=NO2)CN1C(=O)c1ccc(Cl)cc1 (stereo partly specified) | 1.7% | -20 | 6% | -1 | 1.5 | -14 | -17
Cc1ccc(S(=O)(=O)N(C)C[C@H]2OCc3cn(nn3)CCCC(=O)N([C@@H](C)CO)C[C@@H]2C)cc1 | 2.0% | 2 | . | 3 | -12 | 3 | .

The list goes on.
SMILES | PINK1 modulator | CtBP-E1A blk | Sfp PPTase inh | D2 PAM | D2 agonist | Six1-Eya2 inh | TRPV1 PAM
CC1CC(NC(=O)c2cnc3n(c2=O)CCS3)CC(C)(C)C1 (stereo unspecified) | 5.3% | -2 | 0% | -6 | -3.0 | -4 | -22
CC(NC(=O)Cc1ccc(F)cc1)c1ccc(F)cc1 (stereo unspecified) | 0.6% | . | -12% | -11 | 2.7 | -2 | -17
Cc1cccc(N2CCN(S(=O)(=O)c3ccc4c(c3)CCCN4C(=O)C3CCC3)CC2C)c1 (stereo unspecified) | -0.2%&-1.2% | 3 | 0% | -7 | -4.1 | -20 | 6
COc1ccccc1N1C(=NC(=O)COc2ccccc2)SC2CS(=O)(=O)CC21 (stereo unspecified) | 0.3% | 0 | 7% | -4 | -1.0 | 5 | 8
CCOc1ccc(CCNC(=O)COC(=O)c2cccc(S(=O)(=O)N3CCCC3)c2)cc1OCC | -1.1% | 6 | . | 6 | -3.0 | -5 | -4
CCCS(=O)(=O)N1CCCC(C(=O)NCCN2CCCCC2C)C1 (stereo unspecified) | 1.2% | 6 | 13% | -2 | 0.4 | 2 | -7
CCC(=O)N1CCC1(C)C(=O)Nc1cnc2ccccc2c1 (stereo unspecified) | 1.3% | 7 | . | -4 | -3.5 | -3 | .
Cc1ccccc1CN1CCN(C(=O)c2cccc3ccccc23)CC1 | 1.1% | 4 | -28% | -1 | -4.5 | -4 | 19
CC(O)(c1ccccc1)c1nc(-c2ccncc2)cs1 (stereo unspecified) | 0.3% | ? | . | -17 | -7.6 | -27 | .
CCOC(=O)N1CCN(C(=O)c2nn(-c3ccc(C)cc3)c(=O)c3c2c2ccccc2n3C)CC1 | 6.8% | 14 | 13% | -14 | -4.3 | 14 | -16
O=C(CC[C@H]1O[C@@H](n2ccc(=O)[nH]c2=O)[C@H](O)[C@@H]1O)N1CCN(Cc2cccc3ccccc23)CC1 | 0.9% | -1 | . | -8 | -7.0 | 1 | .
CC(=O)Nc1ccc(S(=O)(=O)Nc2nc3ccccc3nc2N2CCc3ccccc3C2)cc1 | 2.3% | 0 | -10% | -8 | 3.2 | 4 | ?
N#CCCn1nnc(-c2ccccc2F)n1 | -1.6% | 0 | 18% | -13 | -2.3 | -4 | -5
C=CCOc1ccc(/C(O)=C2\C(=O)C(=O)N(CCCOC)C2c2ccc(O)c(OC)c2)cc1 (stereo unspecified) | 1.1% | 1 | 6% | -2 | -2.2 | 1 | 19
CCOC(=O)c1c(C)[nH]c(NC(=O)Nc2ccc(NC(C)=O)cc2)c1C | -0.9% | 2 | 3% | 0 | 4.6 | 0 | 1
O=C(Nc1ccc(Cl)c([N+](=O)[O-])c1)C(NCCCO)c1ccccc1 (stereo unspecified) | 0.1% | -18 | 0% | -3 | -5.0 | -3 | 24
CCOC(=O)C1=C(O)C(=O)N(C2CCCCC2)C1 | -0.1% | 1 | 27% | -3 | 4.9 | -14 | -11
COc1ccc(CNC(=O)C[C@H]2C(=O)N(CCc3ccccc3)C[C@@H]2Cc2ccccc2)cc1 | -0.6% | -1 | 13% | -12 | -2.6 | 1 | -3
CC(Sc1nc(-c2ccccc2)cc(C(F)(F)F)n1)C(=O)N1CCC(C(N)=O)CC1 (stereo unspecified) | 2.5%[38.3 µM] | 7 | -2% | -13 | -3.1 | 3 | -4
Cc1nn(CC(=O)NC2CCC(C)CC2)c(C)c1[N+](=O)[O-] (stereo unspecified) | -1.8% | -9 | . | -3 | -2.1 | -2 | 12
O=C(CNC(=O)c1cccc(Br)c1)N/N=C/c1cccs1 | 0.3% | -10 | 13% | -6 | -5.7 | 0 | 5
O=c1[nH]c(-c2ccccc2)cnc1-c1ccccc1 | 0.1% | -1 | . | -7 | -4.1 | 3 | .
Cc1cc(C)n2nc(C(=O)OCC(=O)Nc3ccc(C)c(S(=O)(=O)N4CCOCC4)c3)nc2n1 | 1.1% | -10 | . | -34 | -0.8 | 0 | .
O=C(Cn1ncc2c1-c1ccccc1OC2)N1CCc2ccccc21 | 2.6% | -3 | 15% | -6 | -5.6 | -1 | 7
CCN(CC)S(=O)(=O)c1ccc(N=Nc2cc(C)cc(Br)c2O)cc1 | 12% | -1 | . | -16 | -0.7 | 0 | .

Next compounds
SMILES | PINK1 modulator | CtBP-E1A blk | Sfp PPTase inh | D2 PAM | D2 agonist | Six1-Eya2 inh | TRPV1 PAM
CCOc1ccc(NC(=O)CN2C(=O)c3ccccc3C2=O)cc1 | 1.6% | 8 | 18% | -6 | -5.7 | 1 | 10
Cc1c(C(=O)NCC2CCCO2)oc2ccc(S(=O)(=O)N3CC(C)CC(C)C3)cc12 (stereo unspecified) | 0.6% | 0 | -5% | 4 | -1.9 | 0 | .
Cc1ccc(S(=O)(=O)N(C)C)cc1-n1c(SCC(=O)N(C)C)nc2ccccc2c1=O | -0.1% | . | 18% | -13 | -4.4 | -1 | -7
O=C(Nc1ccc2c(c1)OCO2)C1CCN(C(=O)c2ccc(Cl)cc2)CC1 | -1.1% | 19 | -10% | -23 | -1.2 | -4 | -22
CCOC(=O)c1cc(CC)sc1NC(=O)COc1ccc2c(C)cc(=O)oc2c1 | 5.0% | 16 | 11% | -2 | -1.4 | 17 | 2
O=C(ONC1=NCCCCC1)c1ccc([N+](=O)[O-])cc1 | 1.8% | -6 | 15% | ? | 11 | 11 | 4
CCOC(=O)c1oc2ccccc2c1COC(=O)CNC(=O)c1cc(OC)c(OC)c(OC)c1 | -1.4% | -2 | . | -7 | 3.8 | 3 | -2
CN1C(=O)CN(CCN2CC(=O)N(C)C(=O)C2)CC1=O | 0.3% | 3 | . | -5 | -4.2 | -5 | .

3 entries drawn at random from the list so far:
SMILES | PINK1 modulator | CtBP-E1A blk | Sfp PPTase inh | D2 PAM | D2 agonist | Six1-Eya2 inh | TRPV1 PAM
CCOC(=O)c1sc(NC(=O)c2cc(-c3ccccc3)nc3ccccc23)c(C#N)c1C | ? | 14 | 40µM* | 7 | -1.0 | -4 | .
NC(=O)c1cccc(-c2ccnc3c2CC(C(=O)NCC2CC2)O3)c1 (stereo unspecified) | 2.6% | 3 | . | 3 | 2.6 | -3 | .
CC(NC(=O)Cc1ccc(F)cc1)c1ccc(F)cc1 (stereo unspecified) | 0.6% | . | -12% | -11 | 2.7 | -2 | -17

Assay outcomes deposited in PubChem by National Center for Advancing Translational Sciences (NCATS).
